Compound activity (PubChem BioAssay)
Env fusion inh: inhibitors of HIV Env-mediated cell fusion; HeLa-JRFL Env/CEM21 cell fusion, luciferase; inhibition, % at 12.3 µM; 1.1% of 360,000 active;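 active = mean replicate inhibition score of at least 50 and every replicate individually at or above 50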;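 note: 0% = plate neutral controls and 100% = maraviroc near 300 nM; one replicate is shown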
CSC inhib: blocks cancer stem cells. cancer stem cell-like cells viability, luminescence. inhibition, % at 7.5 µM. 1.1% of 300,000 active. AID 2717;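 active = mean at 75% or more and at least half the replicates too; tested in HMLE shEcad cells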;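 note: 0% = median of negative and 100% = median of positive control wells; the first replicate is given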
eIF4H FP inh: inhibitors of RNA binding by human eIF4H; Q15056; eIF4H fluorescence polarization binding assay; inhibition, % at 35 µM; 0.94% of 290,000 active; AID 2012;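 active = 50% or more with normal probe brightness, or confirmed in later tests; about a fifth of its hits are not listed in these tables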;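 note: calls also rest on retests at 20 µM and on dose response follow-up; 0% = protein and probe with vehicle and 100% = probe without protein; strong numbers were not always called active; many hits fall short of the cut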
PABP polyA inh: blocks human PABP binding to poly(A) RNA | P11940 | fluorescence polarization | inhibition, % at 35 µM | 1% of 290,000 active;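 active = 50% or more with normal probe brightness, or confirmed in later tests; about a fifth of its hits are not listed in these tables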;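 note: calls also rest on retests at 20 µM and on dose response follow-up; controls were probe without protein and protein plus probe with vehicle; some compounds called inactive have numbers as strong as hits; many hits fall short of the cut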
MT1-MMP act inh: blocks activation of human MT1-MMP. HT1080 RFP-PRO-GFP cells, GFP/RFP ratio fluorescence, overnight; percent of plate control window, DMSO zero. GFP/RFP ratio change, % at 20 µM. 0.061% of 360,000 active. AID 651647;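 active = GFP/RFP ratio change of at least 30% with cell ATP level not reduced by more than half and red fluorescence within 50% of control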; note: strong numbers were not always called active
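Material: RFP-PRO-GFP reporter HT1080 cells. Dosing: single-point 20 µM compound, 1% DMSO. Controls: DMSO and RFP-L50D-GFP cell wells. Timing: cells overnight before dosing, compound overnight, 37 °C, 5% CO2. Measure: GFP/RFP fluorescence ratio.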
UUG fidelity: modulators of start codon recognition fidelity in yeast; activity score, % at 18.7 µM; 0.13% of 350,000 active; S. cerevisiae UUG-firefly luciferase reporter, luminescence/redox ratio;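 active = replicate mean at a twofold rise or more, about +100% in these data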;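 note: firefly luciferase made from a UUG start codon reports start codon fidelity; reporter light over untreated wells divided by growth signal over untreated wells; some hits fall short of that in this replicate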
Rce1 inh: inhibitors of yeast Ras-converting enzyme | Q03530 | yeast membranes, quenched prenylated peptide cleavage fluorescence | calls only | 0.27% of 290,000 active;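 active = fall in fluorescence gain of 50% or more versus controls, with final raw signal at or below 3038400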;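 note: plate controls were neutral control wells for no effect and wells lacking membranes for full effect; tested at 10 µM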
Target sequence (Q03530 whole entry, looked up): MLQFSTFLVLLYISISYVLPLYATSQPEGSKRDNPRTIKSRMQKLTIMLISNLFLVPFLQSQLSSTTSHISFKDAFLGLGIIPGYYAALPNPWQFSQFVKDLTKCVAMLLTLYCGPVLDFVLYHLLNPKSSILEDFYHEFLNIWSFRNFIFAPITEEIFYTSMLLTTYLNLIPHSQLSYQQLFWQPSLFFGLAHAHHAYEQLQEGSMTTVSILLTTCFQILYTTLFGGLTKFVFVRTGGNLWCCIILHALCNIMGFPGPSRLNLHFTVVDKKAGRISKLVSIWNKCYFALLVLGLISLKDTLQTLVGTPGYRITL
eIF4H FP inh retest: also measured in eIF4H FP inh; calls as there; inhibition, %; compound at 20 µM; confirmation average;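 mean of two retest wells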
PABP polyA inh retest: further read-out of PABP polyA inh, marked with its call; inhibition, %; compound at 20 µM; confirmation repeats;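 mean of two retest wells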
MT1-MMP act inh RFP: further read-out of MT1-MMP act inh, marked with its call; RFP signal change, %; measured here: RFP expression control read;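 0 = vehicle wells; hits needed this value within 50% of zero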
Starred values were filed as active, the others as inactive; i = inactive; · = no result given; + = active, no number.

SMILES	Env fusion inh	CSC inhib	eIF4H FP inh	PABP polyA inh	MT1-MMP act inh	MT1-MMP act inh RFP	UUG fidelity	Rce1 inh	others
CC(=O)Nc1ccc(S(=O)(=O)C(C#N)c2nc3ccccc3nc2NCCN2CCOCC2)cc1 (stereo unspecified)	16	-15	10	86	0	3	·	i	eIF4H FP inh retest=-3;PABP polyA inh retest=5
CC(=O)Oc1ccc(N(C(C)=O)S(=O)(=O)c2cccs2)c2ccccc12	-80	-3	-1	11	-5	-5	-6	i
CC(=O)NC(=S)Nc1sc2c(c1C(N)=O)CCC(C)C2 (stereo unspecified)	-24	-13	-5	1	7	1	·	i
C=C1CCC(OC(C)=O)C2(C)CCC3C(C)C(=O)OC3C12O (stereo unspecified)	3	·	6	-10	1	1	-21	i
O=c1c(CN2CCN(Cc3ccccc3F)C(CCO)C2)coc2ccccc12 (stereo unspecified)	-1	-6	7	-2	-2	4	-6	i
COc1ccc(C2CCCN2C(=S)Nc2cccc(C)c2)cc1OC (stereo unspecified)	6	1	-13	-8	1	-1	·	i
CC(C)C(=O)Nc1c(-c2cccc(Cl)c2)c(=O)c2ccccc2n1C	0	12	-6	-3	-1	-3	-8	i
COCCn1c(=O)[nH]c2cc(C(=O)N3CCN(c4ccccc4)CC3)ccc2c1=O	·	-5	-1	-3	-2	-2	-7	i
CC(=O)Nc1ccc(C23CC4CC(CC(C4)C2)C3)cc1	19	23	-4	5	-5	-6	-18	i
N=c1c2c(-c3ccccc3)c(-c3ccccc3)oc2ncn1CCCN1CCOCC1	-38	7	13	5	-5	-10	·	i
NS(=O)(=O)c1ccc(NC(=O)c2ccc3c(c2)CCCC3)cc1	-27	6	·	·	0	0	-16	i
CC(=O)Nc1ccc(S(=O)(=O)N2CCc3cc4c(cc3C2C)OCCCO4)cc1 (stereo unspecified)	10	5	-2	4	4	0	1	i
CC1CCCC(C)N1C(=O)CSCc1ccc(Cl)cc1 (stereo unspecified)	35	-2	-4	-4	-1	-5	-13	i
CC1(C(=O)N2Cc3ccccc3C2)CCN1C(=O)Cc1ccccc1 (stereo unspecified)	-43	·	·	·	1	4	-14	·
CS(=O)(=O)N(CC(=O)NCCSCc1ccco1)c1ccc2c(c1)OCO2	15	3	1	-2	2	0	·	i
Cc1cc(NC(=O)Nc2ccc(Cl)cc2)n(C)n1	7	-2	-7	0	6	1	-9	i
COc1ccc(-c2nn(-c3ccccc3)cc2CNC(=O)c2cccc([N+](=O)[O-])c2)cc1	-9	-6	-5	-6	2	-1	·	i
COC(=O)C(C(=O)NCC1CCCO1)C1CCCCCC1 (stereo unspecified)	·	16	1	-8	10	11	-13	i
COc1ccc(N2CCN(C(=O)c3ccc(C)c(NC(=O)c4ccco4)c3)CC2)cc1	4	-4	-4	3	3	3	14	i
COc1cccc(CNC(=O)c2nnn(-c3ccc(OC(F)(F)F)cc3)c2N)c1	28	-9	-1	4	3	-7	-21	i
N/C(=N\OC(=O)N1CCOCC1)c1ccccc1	·	26	1	-4	27	-8	·	i
COc1cccc(-c2cnc(OC(C)(C)C)nc2OC(C)(C)C)c1	-52	17	5	-9	7	11	-19	i
CC(C)(C)c1cc(NC(=O)CCSc2nnc3ccccn23)cc(C(C)(C)C)c1	-81	-19	·	·	1	4	-16	·
O=C(Cc1cn2ccsc2n1)OCc1nc2ccccc2s1	·	-7	14	5	·	·	·	i
COc1ccc(-c2cccc(C3CC=CC4C3C(=O)N(Cc3ccccc3)C4c3ccc(C(F)(F)F)cc3)c2)cc1 (stereo unspecified)	28	28	-11	-6	-5	-15	-5	i
COc1ccc(N2CCN(C(=S)NCCc3ccccc3)CC2)cc1	1	·	·	·	1	0	-7	i
COc1ccc(NC(=O)CN(C)C(=O)c2cn(-c3ccccc3)nc2-c2ccc(OC)cc2)cc1	15	·	·	·	0	1	-7	·
C=CC[C@@H](CC(=O)N[C@H](CO)Cc1ccccc1)C(=O)N[C@H](COC(=O)[C@@H](CC=C)CC(=O)OC(C)(C)C)Cc1ccccc1	-40	·	·	·	0	-7	-13	·
COc1ccc(NC(=O)COC(=O)c2n[nH]c3ccccc23)c(OC)c1	4	·	·	·	0	-2	7	·
Cc1ccc(NC(=O)c2cc(N3C(=O)C4CCCCC4C3=O)ccc2N2CCOCC2)cc1 (stereo unspecified)	9	-20	2	4	4	3	·	i
Cc1ccc2cc(CN(Cc3cccs3)C(=O)c3ccco3)c3nnnn3c2c1C	·	1	4	0	·	·	·	i
CCOC(=O)C1(C(=O)O)NC(=O)CC1c1ccccc1 (stereo unspecified)	·	-2	-12	0	-2	2	-17	i
COc1ccccc1OCC(=O)NCCSCc1cccc(Cl)c1	15	25	-11	4	7	3	·	i
Nc1ccc(CN2CCOCC2)cc1	1	-3	-8	-2	3	3	·	i
Fc1ccc(C2=Nn3c(Cc4ccccc4F)nnc3SC2)cc1	·	-13	-1	-2	4	-1	-13	i
CN(CC(=O)Nc1c(Cl)cccc1Cl)C(=O)c1cccn1C	1	-3	3	2	0	6	-4	i
Cn1c(SCC(=O)N/N=C/c2ccc(O)c(O)c2)nc2ccccc21	23	19	10	3	13	-9	·	i
CC1CC1C(=O)OCC(=O)N(C)c1c(N)n(Cc2ccccc2)c(=O)[nH]c1=O (stereo unspecified)	7	-15	·	·	-1	-1	-9	i
O=S(=O)(Cc1ccccc1)N1CCC(c2nc(-c3cccs3)no2)CC1	·	2	-7	6	3	0	3	i
CSc1ccc(/C=N/NC(=O)c2ccc(-n3cnnn3)cc2)cc1	0	·	·	·	4	3	-10	·
Cc1c(C(=O)Nc2ccc(S(=O)(=O)N3CCOCC3)cc2)cccc1[N+](=O)[O-]	-3	4	-1	-6	3	-3	-6	i
COc1cc(Cl)ccc1NC(=O)COc1ccccc1C(=O)N1CCN(c2ccc(O)cc2)CC1	·	10	-2	-6	7	-9	10	i
Cc1cc(=O)[nH]c(SCC(=O)Nc2cccc3ccccc23)c1C#N	·	·	1	28	1	5	-5	i
COCCCNC(=O)C1Cc2cc(S(=O)(=O)N3CCCC3)ccc2N1C(C)=O (stereo unspecified)	2	3	-13	1	0	2	-22	i
CCOC(=O)N1CCN(Cc2nc3cc(NC(=O)C(C)C)ccc3n2C)CC1	2	-22	-11	-6	-1	3	-19	i
NNC(=S)NC1CCCCCCCCCCC1	31	31	2	6	0	-1	·	i
N#C/C(=N\Nc1ccc(S(=O)(=O)N2CCCCC2)cc1)C(N)=S	23	20	-5	-9	4	-4	-9	i
CNC(=S)N(Cc1ccco1)Cc1cc2cc(OC)ccc2[nH]c1=O	2	-8	-8	7	-1	-3	·	i
CN(c1ccccc1)S(=O)(=O)c1ccc(C(=O)N2CCN(c3ccccc3)CC2)cc1	13	·	·	·	5	8	-1	·
CN(C)c1nc(-c2ccccc2)c2cnn(Cc3ccccc3)c2n1	·	·	7	-5	-3	-6	-24	i
COCCn1c(SCC(=O)N2CCCc3ccccc32)nc2c(c1=O)SC(C)C2 (stereo unspecified)	-30	1	1	-2	-2	0	6	i
COc1ccc(-n2nc(C(=O)NCC(=O)N3CCN(Cc4ccccc4)CC3)c3ccccc3c2=O)cc1	15	-20	6	0	2	-1	19	+
O=c1[nH]c(/C=C\c2ccc(O)c(Cl)c2)nc(O)c1[N+](=O)[O-]	-4	-6	-4	26	7	2	167*	i
O=C(NCC(c1ccc(F)cc1)N1CCOCC1)c1nn(-c2ccccc2)c(=O)c2ccccc12 (stereo unspecified)	·	13	·	·	-2	-4	-7	·
Cc1ccc(S(=O)(=O)N2CCC(c3nc4c(nnn4Cc4ccccc4)c(=O)[nH]3)CC2)cc1	5	20	7	-11	2	-8	-3	i
C/C(=N/NC(=O)Cn1nc2ccccc2n1)c1ccc(F)cc1	-2	-12	-3	7	9	8	-14	i
COc1ccc(N2CCN(CCCn3cnc4c(OC)ncnc43)CC2)cc1	2	·	·	·	1	1	-9	·
Cc1cc(C(=O)OCC(=O)NC(C)(C)C)c2ccccc2n1	·	·	9	18	-1	-3	-18	i
O=C(Nc1nn[nH]n1)c1cc(-c2ccc(Cl)c(Cl)c2Cl)nc2ccccc12	-7	0	15	3	-2	-2	·	i
Cc1ccccc1-c1nnc(SCc2ccccc2F)o1	-269	3	-6	1	3	2	-24	i
COc1cccc(-c2nnc(SCC(=O)N3CC(C)CC(C)C3)o2)c1 (stereo unspecified)	13	55	1	2	-1	-2	-4	i
CCCOC(=O)c1c(N)sc2c1CCC2	1	-2	16	44	-15	3	-13	i

Filtered by structure, those above with an NH in an aromatic ring.
SMILES	Env fusion inh	CSC inhib	eIF4H FP inh	PABP polyA inh	MT1-MMP act inh	MT1-MMP act inh RFP	UUG fidelity	Rce1 inh	others
COCCn1c(=O)[nH]c2cc(C(=O)N3CCN(c4ccccc4)CC3)ccc2c1=O	·	-5	-1	-3	-2	-2	-7	i
COc1ccc(NC(=O)COC(=O)c2n[nH]c3ccccc23)c(OC)c1	4	·	·	·	0	-2	7	·
CC1CC1C(=O)OCC(=O)N(C)c1c(N)n(Cc2ccccc2)c(=O)[nH]c1=O (stereo unspecified)	7	-15	·	·	-1	-1	-9	i
Cc1cc(=O)[nH]c(SCC(=O)Nc2cccc3ccccc23)c1C#N	·	·	1	28	1	5	-5	i
CNC(=S)N(Cc1ccco1)Cc1cc2cc(OC)ccc2[nH]c1=O	2	-8	-8	7	-1	-3	·	i
O=c1[nH]c(/C=C\c2ccc(O)c(Cl)c2)nc(O)c1[N+](=O)[O-]	-4	-6	-4	26	7	2	167*	i
Cc1ccc(S(=O)(=O)N2CCC(c3nc4c(nnn4Cc4ccccc4)c(=O)[nH]3)CC2)cc1	5	20	7	-11	2	-8	-3	i
O=C(Nc1nn[nH]n1)c1cc(-c2ccc(Cl)c(Cl)c2Cl)nc2ccccc12	-7	0	15	3	-2	-2	·	i
